Rango complex inh: Rango-importin beta binding inhibition; Q14974; Rango CFP/YFP FRET sensor + importin beta, 45 min; Potency, µM (series often up to 92.2 µM), without a hit: top-dose inhibition of complex formation; hit rate 0.031% among 340,000; active = rising FRET ratio curve, often small or poorly fitted; inconclusive = mostly compound fluorescence or quenching in the first reads; inactive = flat curves in all reads;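 note: potency is the fitted concentration of half-maximal effect; 0% = DMSO wells and 100% = buffer wells lacking importin beta; nearly all actives have a fitted effect of over 15% in size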
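FRET biosensor (snurportin 1 IBB flanked by EYFP and cerulean), 50 nM, with compound 5 min, then 0.125 microM importin beta in PBS, 1 mM DTT, 0.02% Tween-20, 0.1% BSA. CFP/YFP ratio read after 45 min at room temperature; pre-read flags interference.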
miR-21 reporter: raises the signal of a miR-21 reporter | HeLa miR-21 FLuc reporter, luciferase, 48 h | Potency, µM (highest dose often 38.3 µM), without a hit: top-dose reporter change, positive = more light | 340,000 tested, under 10 active | AID 2288; active = well fitted rising curve with a large enough effect; inconclusive = small, poorly fitted or top-dose-only effect; inactive = no such curve, though single readings can be large or run the other way;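 note: % of control where 0% means no effect; miR-21 action dims this reporter so a rising signal means less miR-21 action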
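HeLa miR-21-FLuc reporter line, endogenous miR-21; 2000 cells/well in DMEM/10% FBS; compound titration up to ~40uM final, 48 h, 37 degree Celsius; luciferase detection reagent, 15 min lysis, CCD luminescence.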
Rango release inh: inhibition of RanGTP-driven Rango-importin beta dissociation | hit rate 0.071% among 340,000 | AID 540253 | Potency, µM (doses to about 46.1 µM), for inactives: top-dose activity change, negative = inhibition | O95149+P62826 | Biochemical FRET Rango-importin beta, RanGTP-induced dissociation; active means falling FRET ratio curve, often poorly fitted, with flat reads before Ran was added; inconclusive means other falling curves, or compound fluorescence or quenching; inactive means flat or rising ratio curve;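 note: potency is the fitted concentration of half-maximal effect; % of control where 0% means no effect; nearly all actives have a fitted effect of over 45% in size; -100% = wells without RanGTP and RCC1; the record marks most hits as doubtful in a second field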
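Quantitative HTS using a FRET biosensor: 0.1 uM Rango, 0.25 uM importin beta, 0.6 uM Ran, 2 mM GTP, 0.2 uM RCC1 final, PBS with DTT, Tween-20 and BSA. Post-read taken 45 min after Ran addition.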
GLA inh pH 4.5: blocks human alpha-galactosidase A at pH 4.5; purified enzyme, 4-MU-alpha-Gal fluorescence, pH 4.5; activity change, negative = inhibition, % at 105 µM; 230,000 tested, under 10 active; P06280; inconclusive = small, poorly fitted or top-dose-only inhibition, or a rising curve; inactive = flat fitted curve, though single readings scatter; no compound was filed as active;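 note: 0% = full activity with enzyme and -100% = basal without enzyme; dose as in the result columns while the protocol names 77 µM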
Target sequence (P06280 whole entry, looked up): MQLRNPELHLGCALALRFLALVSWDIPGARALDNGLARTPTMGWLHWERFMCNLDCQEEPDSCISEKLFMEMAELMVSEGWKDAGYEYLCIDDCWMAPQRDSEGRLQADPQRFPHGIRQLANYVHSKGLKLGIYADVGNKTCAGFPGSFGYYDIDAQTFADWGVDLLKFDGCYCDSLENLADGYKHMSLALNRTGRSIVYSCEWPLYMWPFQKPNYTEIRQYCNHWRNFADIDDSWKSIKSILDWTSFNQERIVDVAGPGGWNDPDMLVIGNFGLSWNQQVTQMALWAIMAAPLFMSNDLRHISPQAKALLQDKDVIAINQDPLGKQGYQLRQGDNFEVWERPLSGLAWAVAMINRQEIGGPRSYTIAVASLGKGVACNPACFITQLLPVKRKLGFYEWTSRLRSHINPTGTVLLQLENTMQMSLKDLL
Starred values were filed as active, the others as inactive; ? = inconclusive; . = not tested or not shown; & = joins results of further samples. A portion of the library. The share of hits here may be higher or lower than overall.

Rango complex inh | miR-21 reporter | Rango release inh | GLA inh pH 4.5 | Structure
-3.6% | . | -10% | . | COC(=O)C(C)Sc1nc2c(c(-c3ccc(OC)cc3)c1C#N)-c1ccccc1C2=O (stereo unspecified)
0.3% | -4% | 18% | . | O=C(NCc1cccnc1)Nc1ccccc1C(F)(F)F
-2.8% | -5% | 2% | 8 | CC(=O)c1ccc(N2C(=O)[C@@H]3C(C(=O)CCN4C(=O)c5ccccc5C4=O)=NN[C@@H]3C2=O)cc1
4.9% | -4% | 0% | . | O=C(O)c1ccc([N+](=O)[O-])c(CS(=O)(=O)c2ccccc2)c1
-1.0% | . | 0% | . | COc1ccc2c(c1)OC[C@H]1[C@H]2N2C(=O)CN(Cc3ccc(Cl)cc3)C(=O)[C@@]2(C)[C@H]1c1ccccc1
-1.4% | -9% | 1% | -4 | Cc1ccc2cc3cc(C(=O)NCCCN4CCCCCC4)oc3nc2c1
-3.0% | 0% | -10% | 13 | Cn1c(Sc2ccc([N+](=O)[O-])cc2C(F)(F)F)nnc1-c1ccccc1
-0.7% | -7% | 29% | -2 | O=C(CCCc1cccs1)Nc1nc(-c2ccc(F)cc2)cs1
-1.6% | . | -1% | . | CS(=O)(=O)c1ccc(C(=O)NCC2(N3CCOCC3)CCCCC2)cc1
-1.9% | -1% | 13% | -6 | O=C(NCCN1CCOCC1)c1ccncc1
-0.6% | 0% | -3% | 7 | Cn1c(Cl)c(C(=O)Nc2ccc(Cl)cc2)c2ccccc21
0.4% | . | -1% | . | CCN(C(=O)COC(=O)/C=C/c1ccc(F)cc1)C1CCCCC1
0.1% | -17% | 9% | . | Cn1nccc1C(=O)N(CCN1CCCCC1)CC1CCCN(C2CCCC2)C1 (stereo unspecified)
2.9% | -2% | -5% | . | O=C(O)c1cn(-c2ccccc2)nc1-c1ccc(F)cc1
1.5% | 21% | 1% | -15 | Cc1nc2ccccc2c2oc(C(=O)Nc3ccc(C(C)C)cc3)cc12
-0.1% | -6% | -5% | . | O=C(CSc1nnc(COc2ccc(Cl)cc2Cl)o1)Nc1ccccn1
0.4% | 8% | 12% | . | OCCC1CN(Cc2ccccc2O)CCN1CCCc1ccccc1 (stereo unspecified)
-2.6% | . | -3% | . | O=C1c2ccccc2CSc2c(O)cccc21
0.0% | -35% | -13% | -10 | O=C(Nc1ccccc1F)C1CC1c1ccccc1 (stereo unspecified)
7.3% | 5% | 19% | 4 | O=C(Nc1cccc2ncccc12)C(Cl)(Cl)Cl
-0.6% | 0% | -18% | -2 | Cn1cc(CN2CCc3c([nH]c4ccccc34)C2C(C)(C)C)cn1 (stereo unspecified)
-0.3% | 13% | -9% | . | COc1ccc(-n2cc(-c3ccccc3)[nH]c2=S)c(OC)c1
-2.6% | -19% | 24% | -1 | Cc1ccccc1Nc1n[nH]c(C)c1[N+](=O)[O-]
-4.1% | -3% | -5% | -2 | CCOC(=O)N1CCN(C(=S)Nc2cccc(C)c2C)CC1
-4.2% | . | 1% | . | CC(=O)Nc1ccc(CCNC(=O)c2ccc3ccccc3c2O)cc1
-0.7% | 6% | -1% | -8 | C/C(=N\NC(=O)C(N)=O)c1cccc([N+](=O)[O-])c1
3.2% | -23% | -6% | -1 | COc1ccccc1NC(=O)Cn1nc(-c2ccc3c(c2)OCCO3)ccc1=O
-0.6% | 1% | 7% | . | COc1ccc(Cn2c(=S)[nH]c3cc(C(=O)N4CCCCC4)ccc3c2=O)cc1
? | -2% | ? | 9 | O=C(NC1CCCC1)c1cnn2c(C(F)(F)F)cc(-c3ccco3)nc12
-1.9% | 1% | -2% | -9 | O=c1c2ccccc2c(-c2ccc(O)cc2)nn1-c1cccc(C(F)(F)F)c1
1.2% | -15% | 3% | -8 | Clc1ccc2c(N/N=C/c3cccc(Br)c3)ccnc2c1
1.3% | 0% | 4% | -3 | O=C(CCN1C(=O)/C(=C/c2ccccc2Cl)SC1=S)NC1=NCCS1
-1.1% | -2% | -11% | . | COc1ccc(N(C)C(=O)c2cn(CC(C)C)c(=O)c3cc(OC)c(OC)cc23)c(OC)c1
0.1% | 1% | -14% | -11 | COCCn1c(CN2CCc3ccccc3C2)nc2c1c(=O)n(C)c(=O)n2C
-0.5% | -4% | -6% | 3 | Cc1nc(NCCc2ccc(F)cc2)c(C#N)c(C)c1[N+](=O)[O-]
-6.5% | -19% | 1% | -15 | Cc1ccc(F)c(NC(=O)/C(C#N)=C(\O)c2ccc(C(C)(C)C)cc2)c1
-3.1% | 21% | -8% | 0 | N=c1c2c(ncn1Cc1ccco1)Oc1c(ccc3ccccc13)C2c1ccccc1 (stereo unspecified)
. | 0% | . | 28 | CCn1c(=N)c(C(=O)OC)cc2c(=O)n3ccccc3nc21
? | 1% | 9.2µM* | ? | CC(C)(C)OC(=O)NCCC(=O)Oc1ccc2ccc(=O)oc2c1
0.3% | -1% | -1% | 0 | Cc1nc(SCC(=O)Nc2cccc(Cl)c2)n[nH]1
3.8% | -56% | 4% | . | CCc1ccc(C(=O)Nn2cnc3ccccc3c2=O)cc1
? | -3% | ? | 4 | Cc1cccn2c(=O)c(/C=C(\C#N)S(=O)(=O)c3ccccc3)c(N3CCC(C(N)=O)CC3)nc12
-0.5% | . | -1% | . | CCCn1c(N)c(C(=O)COC(=O)CNC(=O)c2ccc(C)c(C)c2)c(=O)n(C)c1=O
? | . | ? | . | O=C(NCC1CCCO1)c1cccc2c1C(=O)c1ccc(N3CCC(Cc4ccccc4)CC3)cc1S2(=O)=O (stereo unspecified)
? | -2% | -11% | 1 | Cc1ccc[n+](-c2nc([O-])sc2C=O)c1
1.2% | 0% | 1% | . | O=C(CCN1C(=O)[C@@H]2Cc3ccccc3CN2C1=O)N[C@H](Cc1ccccc1)C(=O)O
1.1% | 12% | 15% | -6 | CCN(CC)C(=O)Oc1nnc(SC(C)C)n1-c1ccc(Cl)c(Cl)c1
? | -30% | 0% | 4 | Cc1nn(-c2ccc(C(=O)O)cc2)c(C)c1Oc1ccccc1O
0.2% | -5% | 19% | 1 | CC(Oc1ccccc1)C(=O)Nc1ccc(S(=O)(=O)N2CCOCC2)cc1 (stereo unspecified)
-0.9% | -8% | 2% | -1 | Cc1ccc2cc(CN(CCN3CCCC3)C(=O)Nc3ccc(F)cc3)c(=O)[nH]c2c1C
-2.5% | 10% | 20% | . | OCC1(CCc2ccccc2)CCCN(C/C=C/c2ccccc2)C1 (stereo unspecified)
6.5% | . | ? | . | Cc1ccc(C)c(N2N=C(C(=O)NCCN3C(=O)S/C(=C\c4cccnc4)C3=O)CCC2=O)c1
2.1% | -4% | 1% | 1 | Cc1ccc(S(=O)(=O)CCC(=O)O)cc1C
-2.8% | 18% | 1% | -6 | S=C(NC1CCCCC1)N1CCOCCOCCN(C(=S)NC2CCCCC2)CCOCCOCC1
3.6% | -21% | -11% | -5 | Cc1ccccc1OCc1nc2ccccc2c(=O)n1/N=C/c1cn[nH]c1-c1ccc(Br)cc1
-3.0% | -6% | 6% | -1 | Cc1cc(C(=O)N/N=C/C=C/c2cccc([N+](=O)[O-])c2)n[nH]1
? | -36% | ? | -4 | CC1=CN2C(=N)/C(=C/c3ccco3)C(=O)N=C2S1
-0.6% | -3% | -10% | 2 | Cn1c(N)c(C(=O)COC(=O)CCc2nc3ccccc3s2)c(=O)n(C)c1=O
0.8% | 11% | 2% | -6 | Cc1cccc(NC(=O)N(Cc2cc3cc(C)ccc3[nH]c2=O)CC2COCCO2)c1 (stereo unspecified)
0.0% | -5% | 10% | -24 | COc1cc(CC(=O)Nc2ccc3nc(SC)sc3c2)cc(OC)c1OC

(next part)
Rango complex inh | miR-21 reporter | Rango release inh | GLA inh pH 4.5 | Structure
-0.7% | -1% | -3% | -13 | CCC1C(=O)CC(c2ccco2)NC1c1ccco1 (stereo unspecified)
0.6% | -45% | -3% | -6 | Cc1cccc(-n2ncc3c(N4CCC(C)CC4)ncnc32)c1
-0.5% | -3% | -3% | -11 | CN(C)/C=C/C(=O)c1cnc2sccn2c1=O
-1.7% | 1% | 17% | -4 | O=C1N=C(N2CCOCC2)CS1
? | -1% | 16% | 8 | CC1CCN(S(=O)(=O)c2ccc(C(=O)Nc3ccccc3-c3nc4ccccc4[nH]3)cc2)CC1
-0.1% | -8% | ? | 1 | CCOC(=O)CCc1c(C)nc(SCCCn2c(=O)[nH]c3ccccc32)c(C#N)c1C
0.9% | -9% | -10% | -1 | O=C(NCCCn1ccnc1)c1ccc2c(c1)OCCO2
-6.6% | -13% | 1% | . | COc1ccc(-c2cnnn2-c2ccc([N+](=O)[O-])cc2)cc1
1.7% | -6% | 2% | -2 | COc1ccc(C(=O)N2CCSC2=S)cc1OC
-2.1% | -25% | 1% | 1 | CSc1nsc(SCC(=O)Nc2ccc(C(C)=O)cc2)n1
1.5% | -3% | 8% | 11 | O=C(CSc1nc(-c2ccco2)cc(C(F)(F)F)n1)NCCCN1CCOCC1
-0.8% | -9% | 1% | -1 | Cc1cc(C)c(NC(=O)C2CCCN2CCO)c(C)c1 (stereo unspecified)
-1.0% | -2% | 2% | -9 | CCC(C)Oc1nc2c(c(=O)n(C)c(=O)n2C)n1C (stereo unspecified)
3.8% | 13% | -1% | -9 | Cc1ccccc1CSCCNC(=O)c1ccc(Cl)c(S(=O)(=O)N2CCOCC2)c1
? | 0% | ? | -13 | O=C(c1cnn(C(=O)c2cccc(S(=O)(=O)N3CCOCC3)c2)c1)c1cc(Cl)cc(Cl)c1O
5.2% | -34% | -16% | 4 | O=C(CNS(=O)(=O)c1cccs1)Nc1ccc2c(c1)OCCO2
-4.5% | -7% | 0% | . | N#Cc1ccc(C(=O)NCCCSc2ccccc2)cc1
-2.7% | 15% | -5% | -1 | O=S(=O)(c1ccc2c(c1)OCCO2)N1CCN(c2ncnc3sccc23)CC1
-0.4% | -5% | 3% | 3 | Cc1ccc(OCC(=O)c2c(O)c3ccccc3oc2=O)cc1C
2.6% | -2% | 3% | 3 | COC(=O)Cn1c2ccc(OC)cc2c2nc(C)sc21

Among those listed so far, these have a thiophene ring, fused or not:
Rango complex inh | miR-21 reporter | Rango release inh | GLA inh pH 4.5 | Structure
-0.7% | -7% | 29% | -2 | O=C(CCCc1cccs1)Nc1nc(-c2ccc(F)cc2)cs1
5.2% | -34% | -16% | 4 | O=C(CNS(=O)(=O)c1cccs1)Nc1ccc2c(c1)OCCO2
-2.7% | 15% | -5% | -1 | O=S(=O)(c1ccc2c(c1)OCCO2)N1CCN(c2ncnc3sccc23)CC1

Other structures
Rango complex inh | miR-21 reporter | Rango release inh | GLA inh pH 4.5 | Structure
0.1% | -12%&-20% | 0% | . | COc1cc2c(cc1OC)C(c1cccc(Cl)c1)CC(=O)N2 (stereo unspecified)
4.2% | -4% | -3% | 1 | CCSc1nnc(NS(=O)(=O)c2ccc(C)cc2)s1
-0.5% | -1% | 1% | . | COc1ccc(S(=O)(=O)NC2CC(C)(C)NC(C)(C)C2)cc1
-0.6% | 1% | -17% | 1 | O=C(CSc1nnc(COc2ccccc2)n1Cc1ccco1)c1ccc(F)cc1
? | -1% | ? | -7 | COCC(=O)NCc1ccc2c(c1)cc(C)n2C
1.8% | -6% | -13% | . | COc1ccc(NC(=O)C(C)N2CCN(C)CC2)cc1 (stereo unspecified)
-0.8% | -4% | 5% | -4 | CCOC(=O)C1=C(C)NC2=C(C1c1ccc([N+](=O)[O-])cc1)S(=O)(=O)c1ccccc12 (stereo unspecified)
0.7% | -21% | 1% | 0 | c1ccc(C2=Nn3c(nnc3-c3cc(-c4ccccc4)n[nH]3)SC2)cc1
2.5% | -16% | -1% | -15&0 | O=C(c1ccc(Br)o1)N(Cc1ccccc1)Cc1ccccc1
-0.2% | -3% | ? | 8 | CC(C)CNC(=O)COC(=O)c1ccccc1OCC(=O)Nc1ccc(Br)cc1
3.5% | -1% | 4% | -13 | COc1cccc(C(=O)Nc2cc(S(=O)(=O)N3CCCCC3)ccc2OC)c1
-3.5% | -7% | 1% | -1 | Cc1ccc(OC(C)C(=O)O)cc1C (stereo unspecified)
